Source: PubChem BioAssay
Sa growth 42C = blocks Staphylococcus aureus growth; S. aureus RN4220 growth, OD600, 20 h, 42 °C; hits give low values; relative growth, % (concentration not given with the values); 170,000 compounds, 0.53% hits; AID 720641;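 active = growth at 42 °C up to 50% and 20 or more points under that at 30 °C, or under 10% at both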;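 note: 300 nL library stock went into each well; scaled to the means of positive and negative controls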
GIV-Gai inh = inhibitors of GIV GBA-motif binding to rat Galpha-i3 | AID 1224905 | P08753 | percent of control (FP), % (test concentration not listed) | 210,000 compounds, 0.42% hits | Galpha-i3/FITC-GIV peptide fluorescence polarization, 90 min; hits give low values; scaled: aluminum fluoride 0%, vehicle 100%;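 active = replicate mean at 85% of control or lower, very high polarization wells dropped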;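 note: wells of about 15 µL received 100 nL stock; the first replicate is given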
Target sequence (P08753 whole entry, looked up): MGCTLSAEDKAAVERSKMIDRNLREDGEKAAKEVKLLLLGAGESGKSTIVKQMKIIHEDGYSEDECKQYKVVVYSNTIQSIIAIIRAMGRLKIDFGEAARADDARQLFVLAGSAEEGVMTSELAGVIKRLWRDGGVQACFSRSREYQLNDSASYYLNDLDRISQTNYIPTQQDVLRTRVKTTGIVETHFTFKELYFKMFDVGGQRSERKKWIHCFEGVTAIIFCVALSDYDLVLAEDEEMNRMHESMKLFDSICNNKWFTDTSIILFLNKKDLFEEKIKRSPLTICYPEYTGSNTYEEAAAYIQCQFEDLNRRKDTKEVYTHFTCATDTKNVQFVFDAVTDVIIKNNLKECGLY
HCMV UL50-53 inh = disrupts HCMV UL50-UL53 complex binding | HTRF UL50-UL53 interaction, normalized percent inhibition | 190,000 compounds, 0.15% hits | AID 1918969 | inhibition, % (test concentration not listed);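 active = both replicates at 50% or more, plus weaker picks with an unusually low signal ratio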;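 note: stock transfer was 100 nL into about 20 µL; 0% = negative control wells and 100% = wells with untagged competitor protein; inactives centre near -12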
Sa growth 42C second temp = also measured in Sa growth 42C; calls as there; relative growth, %; measured here: growth at 30 °C;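 optical density after 20 h as mean of two plates; 100% = untreated growth and lower means inhibition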
* = called active by the depositor; · = not tested or not shown; & = joins results of further samples.

SMILES	Sa growth 42C	Sa growth 42C second temp	GIV-Gai inh	HCMV UL50-53 inh
O=C(CSc1nc2c([nH]c3ccccc32)c(=O)n1-c1cccc(Cl)c1)NCC1CCCO1 (stereo unspecified)	113	99	102	·
CCN(CC)S(=O)(=O)c1cccc(-n2sc3ccccc3c2=O)c1	73	88	·	-11
Cc1[nH]c(=O)[nH]c(=O)c1S(=O)(=O)N1CCCCC1	108	86	·	3
CCOc1cc(C2c3c(-c4cc(C)ccc4O)n[nH]c3C(=O)N2CCCO)ccc1O (stereo unspecified)	·	·	106	-26
Cc1cc(C(=O)Cn2cc(S(=O)(=O)N(C)C)ccc2=O)c(C)n1C1CCS(=O)(=O)C1 (stereo unspecified)	103	99	·	-2
COc1ccc(NC(=O)c2coc(=O)c3ccccc23)cc1OC	96	98	100	-2
Nc1nc(SCc2ccccc2)n(-c2ccccc2)n1	85	90	·	0
CSc1ccccc1C(=O)NC1CC1	104	95	·	-26
Cc1noc2ncnc(Nc3ccc(F)cc3)c12	105	88	95	·
COc1cc(OC)c(NC(=O)Cn2cnc3onc(-c4ccc(F)cc4)c3c2=O)cc1Cl	97	85	105	-34
Cc1ccc(OC(=O)CSc2nnc(CNC(=O)c3ccccc3)o2)cc1	119	91	101	-9
COc1ccc2c(CNCCc3ccccc3OC)c(C(=O)O)n(C)c2c1	89	89	111	·
COc1ccc(C(=O)N(Cc2nc3nc(C)cc(=O)n3[nH]2)c2ccc(C)cc2)cc1OC	·	·	103	-23
CCOc1ccc(NC(=O)c2c(C)oc3nc(C)nc(N4CCCC4)c23)cc1	91	85	103	·
CCOCCOC(=O)C1=C(C)NC2=C(C(=O)CCC2)C1c1ccc(OCc2ccccc2)c(OC)c1 (stereo unspecified)	·	·	101	-20
CCOC(=O)CN1CC23C=CC(O2)C(C(=O)NCc2ccc(OC)cc2)C3C1=O (stereo unspecified)	101	84	103	·
CCOc1ccc(S(=O)(=O)c2c(C(=O)c3ccc(C)c(C)c3)cnc3ccccc23)cc1	103	91	104	-25
O=C(Nc1cccc(-c2nc3ccccc3o2)c1)c1cccnc1	87	85	108	-13
C/C=N/NC(=O)CSc1nc2ccccc2s1	98	83	103	-20
CC(C)(C)C(=O)Nc1c(Cl)sc2nccc(=O)n12	111	83	99	·
CCOc1ccc(Nc2nc(C)c(NC(=O)c3ccccc3OC)c(Nc3ccc(OCC)cc3)n2)cc1	·	·	104	-22
COc1ccc(-c2nc3c4c5c(sc4ncn3n2)C(C)(C)NC(C)(C)C5)cc1	·	·	101	-19
Cc1ccc(CN(C)C(=O)c2ccc(-c3ccccc3)cc2)o1	105	96	·	-8
CC(N)(Cc1cccc(O)c1)C(=O)O (stereo unspecified)	96	89	105	-7
Cc1[nH]c2ccccc2c1C(c1ccccc1)c1cccs1 (stereo unspecified)	92	99	108	·
(continued)
SMILES	Sa growth 42C	Sa growth 42C second temp	GIV-Gai inh	HCMV UL50-53 inh
Nc1ccccc1SCC(O)Cn1ccc2ccccc21 (stereo unspecified)	94	87	96	-22
O=C(CSc1nc(=O)n(Cc2ccncc2)c2c1CCCC2)Nc1ccccc1	87	90	100	-32
COc1ccc(C2C(C(=O)N3CCC(C)CC3)c3ccccc3C(=O)N2C)cc1 (stereo unspecified)	94	86	102	-33
O=C(C1CCCC1)N(CC1CCCO1)c1nc2ccccc2s1 (stereo unspecified)	95	95	·	-14
COc1cccc(/C=N/NC(=O)CN2CC(c3ccccc3)CC2=O)c1OC (stereo unspecified)	93	89	107	-31
Cc1ccc(Nc2nc(C)c3ncn(-c4ccc(C)cc4)c3n2)cc1	·	·	106	-21
COc1cc(OC)cc(-c2nc3c4ccccc4[nH]c(=O)n3n2)c1	108	94	105	-10
N#Cc1ccc(-c2csc(-c3ccc(C4SCCS4)cc3)n2)cc1	91	97	114	-17
CCc1ccc(-n2c(=O)c3cccnc3n2CC(=O)NCc2ccccc2)cc1	103	99	109	·
Nc1ccc2c(c1)C(=O)N(CCO)C2=O	73	91	90	-38
CCOCCCNc1ncnc2onc(C)c12	109	101	102	·
Cn1c(=O)c2c(ncn2CC(=O)Nc2nc3ccc(S(C)(=O)=O)cc3s2)n(C)c1=O	·	·	99	-14
CC1CSC(N(C(=O)/C=C/c2cn(CCC#N)c3ccccc23)c2ccc(Cl)cc2)=N1 (stereo unspecified)	111	94	·	-1
COc1ccc(Cc2nc3ccc(C(=O)NCCCN4CCN(C)CC4)cc3o2)cc1	107	98	104	·
Cc1ccc(S(=O)(=O)NCCc2nnc3ccc(SCC(=O)N4CCCC4)nn23)cc1	104	83	99	·
Cc1ccc(CCNC(=O)c2c3c(nc4ccccc24)C(=O)N(C2CCCCC2)C3)cc1	91	74	100	·
CCC(=O)N1c2ccccc2CC1C(=O)NCCc1ccc(Cl)cc1 (stereo unspecified)	103	97	103	·
Cc1cc(C)nc(NCC(O)COc2ccccc2C)n1 (stereo unspecified)	107	95	107	-43
Cc1nccc(-c2cccc(NC(=O)c3ccccc3Cl)c2)n1	106	102	109	6
Clc1ccc(SCc2ncon2)cc1	104	77	97	-2
CCc1nnc2c(-n3nc(C)cc3C)nc3ccccc3n12	83	89	100	-62
CNC(=O)Cc1ccc(-n2c(=O)c3ccccc3n(CC(=O)NCc3ccc(F)cc3)c2=O)cc1	·	·	107	-9
Cc1ccc(C2=NC(C(C)C)NC(c3ccccc3O)C2)cc1 (stereo unspecified)	82	69	106	·
Cn1c(=O)c(=O)n(C)c2cc(S(=O)(=O)N3CCSc4ccccc43)ccc21	101	85	100	·
COc1ccc(CNC(=O)c2cc3c(=O)oc4ccccc4c3s2)cc1	103	84	102	·
(more compounds)
SMILES	Sa growth 42C	Sa growth 42C second temp	GIV-Gai inh	HCMV UL50-53 inh
COc1cccc(C(=O)Nc2nn3c(COc4ccccc4)nnc3s2)c1	86	74	105	·
COc1cccc(Oc2ccc(C(F)(F)F)cc2N)c1	93	98	·	7
Cc1nn(C(C)C(=O)N2CCc3ccccc3C2)c(=O)c2c1sc1ccccc12 (stereo unspecified)	·	·	108	-26
COc1ccc(C2=NN(C(=O)c3cccs3)C(c3cc4ccccc4nc3Cl)C2)cc1 (stereo unspecified)	113	92	104	·
COc1cccc(CNC(=O)C2CCCN(c3nc4ccccc4n4cccc34)C2)c1 (stereo unspecified)	98	85	100	-21
O=C(COC(=O)C1CC(=O)N(Cc2ccco2)C1)Nc1cccc(C(=O)Nc2cccc(C(F)(F)F)c2)c1 (stereo unspecified)	82	94	·	-9
CC(C)Cn1c(=O)c2cc3c(=O)n(CC(C)C)c(=O)c3cc2c1=O	102	100	106	5
CCn1nc(C)c2c1c(=O)n(Cc1ccc(F)cc1)c(=O)n2CC(=O)NC1CCCC1	·	·	101	-1
O=C1c2ccccc2C(=O)c2c1cccc2-c1ccc(/C=C2\SC(=S)N(c3ccccc3)C2=O)o1	·	·	100	-15
Cc1ccc2oc(C(=O)Nc3sc4c(c3C(=O)NCC3CCCO3)CCC4)cc(=O)c2c1 (stereo unspecified)	108	82	107	-27
Cc1ccc2oc(=O)n(CCCOc3ccc(Cl)cc3)c2c1	91	93	97	0
CC(C(=O)Nc1ccc(S(=O)(=O)N2CCCC2)cc1)N(C)Cc1ccc(F)cc1 (stereo unspecified)	97	91	·	-5
CCN(CC)CCCn1c(SCc2nc3sc4c(c3c(=O)[nH]2)CCC4)nc2ccccc2c1=O	108	92	·	-6
O=C(COc1ccc2ccc(=O)oc2c1)c1ccccc1Cl	73	86	·	-8
Cc1cc(OC(C)C(=O)N2CCN(CCc3ccccn3)CC2)ccc1Cl (stereo unspecified)	102	81	100	-20
CCOC(=O)CSc1nccc(-c2sc3scc(C)c3c2C)n1	103	81	97	-2
CCCCCCn1c(=S)[nH]c2ccccc2c1=O	83	97	·	17
O=C(O)c1c2c(nc3ccccc13)CCN(S(=O)(=O)c1ccc(Cl)cc1)C2	142	85	105	·
CCOC(=O)N1CCN(C(=O)c2ccc3c(=O)n(CCc4ccccc4)c(=O)[nH]c3c2)CC1	101	93	96	·
Clc1cccc(Cl)c1Cn1nnc(N2CCCCC2)n1	105	99	98	1
CCCc1ccc(OCC(=O)Nc2scc(-c3cccs3)c2C(=O)OC)cc1	110	88	104	-24
N#Cc1c(Cl)cccc1NC1CCSC1 (stereo unspecified)	100	81	100	-11
O=C(Nc1ccc(Cl)cc1)c1csnn1	88	80	109	-21
O=C(CCc1nnc(C(=O)Nc2cccc(Cl)c2)s1)NCc1cccc(F)c1	·	·	98	-20
N#CCC(=O)Nc1ccccc1C(=O)O	105	93	·	-14
(continued)
SMILES	Sa growth 42C	Sa growth 42C second temp	GIV-Gai inh	HCMV UL50-53 inh
CC(=O)Nc1n[nH]c(-c2ccc(C)cc2)c1C	95	106	99	-7
Cc1ccc(C(=O)c2nccn2C)cc1C	82	95	·	-12
C=C(C)CSc1nnc(-c2ccc(C(C)(C)C)cc2)o1	73	76	·	-15
CCN(CC)C(=O)Nc1ccc2c(c1)N(Cc1ccccc1)C(=O)c1ccccc1S2	107	97	96	-6
Cc1ccc(-c2n[nH]c(=O)c3ccccc23)cc1S(=O)(=O)N1CCCC1	105	84	103	-9
O=C(NCCCn1ccnc1)c1cccc(S(=O)(=O)Nc2ccccc2F)c1	103	85	·	-15
CC(NS(C)(=O)=O)c1nc(-c2ccccc2)no1 (stereo unspecified)	90	87	103	-19
COc1ccccc1NC(=O)Cn1c(=O)n(Cc2nc(C)no2)c(=O)c2cc3c(cc21)OCO3	97	95	102	·
Cn1c(C(=O)Nc2cccc(Cl)c2)cc2c(=O)oc3ccccc3c21	·	·	109	-2
COc1ccc(C(=O)Nc2nnc(SCc3cc(=O)n4cc(Cl)ccc4n3)s2)cc1	93	87	102	·
O=C(COc1ccccc1F)Nc1ccccc1O	96	93	·	-7
Cc1cccc(NS(=O)(=O)c2ccc3c(c2)CCN3C(=O)C2CC2)c1C	114	96	103	-15
Cc1ccc(CNC(=O)c2ccc3c(c2)CCN3S(=O)(=O)c2ccc(Br)cc2)cc1	99	89	98	-27
CCCCS(=O)(=O)N1CCc2ccccc2C1	99	103	104	-27
O=C1c2ccccc2C(=O)N1CSc1ncnc2sc3c(c12)CCCC3	·	·	103	-11
O=C(NCc1csc2ccccc12)c1cccs1	128	84	106	2
COc1ccc(N2CC(NS(C)(=O)=O)CC2=O)cc1 (stereo unspecified)	93	88	102	-34
O=C(CNC(=O)c1ccccc1Cl)OCc1cc(=O)n2ccsc2n1	90	89	108&98	-38
CN(C)c1ccc(C(O)C(=O)c2ccccc2)cc1 (stereo unspecified)	111	97	99	·
CC1CCCCN1C(=O)CCc1nc2ccccc2n1-c1ccccc1 (stereo unspecified)	99	104	·	13
Cc1ccc(Cn2cc(CCC(=O)NC(C)C)c3ccccc32)cc1	97	87	108	·
COc1cccc2cc(-c3nc4sc(C(=O)Nc5ccc(F)cc5F)c(C)c4c(=O)[nH]3)c(=O)oc12	83	101	112	·
O=C(CNC(=O)C1CCCCC1)Nc1ccccc1N1CCOCC1	96	97	·	-15
COc1ccc(OC(C)c2nc(-c3ccc(OC)cc3)no2)cc1 (stereo unspecified)	92	82	105	2
O=C(NC(=S)N1CCN(c2ccccc2O)CC1)C12CC3CC(CC(C3)C1)C2	86	92	·	-14

13 structures already listed, ordered by heavy-atom count, low to high:
SMILES	Sa growth 42C	Sa growth 42C second temp	GIV-Gai inh	HCMV UL50-53 inh
C/C=N/NC(=O)CSc1nc2ccccc2s1	98	83	103	-20
Cc1noc2ncnc(Nc3ccc(F)cc3)c12	105	88	95	·
CN(C)c1ccc(C(O)C(=O)c2ccccc2)cc1 (stereo unspecified)	111	97	99	·
CC(C)Cn1c(=O)c2cc3c(=O)n(CC(C)C)c(=O)c3cc2c1=O	102	100	106	5
Cc1ccc(Nc2nc(C)c3ncn(-c4ccc(C)cc4)c3n2)cc1	·	·	106	-21
Cc1cccc(NS(=O)(=O)c2ccc3c(c2)CCN3C(=O)C2CC2)c1C	114	96	103	-15
Cc1ccc(OC(=O)CSc2nnc(CNC(=O)c3ccccc3)o2)cc1	119	91	101	-9
CCCc1ccc(OCC(=O)Nc2scc(-c3cccs3)c2C(=O)OC)cc1	110	88	104	-24
CC(C(=O)Nc1ccc(S(=O)(=O)N2CCCC2)cc1)N(C)Cc1ccc(F)cc1 (stereo unspecified)	97	91	·	-5
Cc1cc(C(=O)Cn2cc(S(=O)(=O)N(C)C)ccc2=O)c(C)n1C1CCS(=O)(=O)C1 (stereo unspecified)	103	99	·	-2
CCN(CC)C(=O)Nc1ccc2c(c1)N(Cc1ccccc1)C(=O)c1ccccc1S2	107	97	96	-6
COc1ccc(C(=O)N(Cc2nc3nc(C)cc(=O)n3[nH]2)c2ccc(C)cc2)cc1OC	·	·	103	-23
CCOCCOC(=O)C1=C(C)NC2=C(C(=O)CCC2)C1c1ccc(OCc2ccccc2)c(OC)c1 (stereo unspecified)	·	·	101	-20

Continuation.
SMILES	Sa growth 42C	Sa growth 42C second temp	GIV-Gai inh	HCMV UL50-53 inh
C=C(C)Cn1c(SCC(N)=O)nc2c(c1=O)C1(CCCC1)Cc1ccccc1-2	105	94	99	-5
CC1CCCCN1C(=O)CCNC(=O)Cn1cnc2ccccc2c1=O (stereo unspecified)	101	95	104	8
Cc1nn(-c2ccc(N3CCCC3)nn2)c(C)c1CCC(=O)NCc1ccc(F)cc1	104	90	100	·
CN(CCc1ccccn1)Cc1ccncc1	95	88	99	-8
CC1CN(C(=O)C2CC2)c2cc(S(=O)(=O)N3CCn4c3nc3ccccc34)ccc2S1 (stereo unspecified)	·	·	105	-16
CSc1nc(N)c(C#N)c(Cc2ccccc2)c1C#N	91	97	·	10
CCOC(=O)N1CCN(C(=O)CN(Cc2ccc(F)cc2)S(=O)(=O)c2ccc(C)cc2)CC1	94	95	101	-6
